Source: PubChem (Broad Institute)
Ecoli rRNA inh: inhibits bacterial ribosomal RNA function over humanized ribosomes; E. coli WT GFP vs humanized-ribosome RFP mutants, fluorescence, 24 h; stronger effect = lower value; DMSO median 0, no signal -100; GFP signal change (wild-type ribosome), % (no concentration beside the values); 350,000 compounds, 1.6% hits;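 active means significant combined selectivity score with lowered wild-type GFP, culture density cut under 30%, mutant RFP and density less affected; inactive means any of these conditions unmet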; further: one replicate is shown; some compounds called inactive have numbers as strong as hits
Ecoli rRNA inh OD600: recorded beside Ecoli rRNA inh, whose call it bears; OD600 change, %; measured here: OD600 growth;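 optical density of the mix in the first replicate; 0 = DMSO median and -100 = no signal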
Ecoli rRNA inh RFP: recorded beside Ecoli rRNA inh, whose call it bears; RFP signal change, %; measured here: RFP humanized mutant strains;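 first replicate; 0 = DMSO median and -100 = no signal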
* = called active by the depositor.

Ecoli rRNA inh | Ecoli rRNA inh OD600 | Ecoli rRNA inh RFP | Compound
2 | 6 | -0.2 | CCC(=O)Nc1ccc2c(c1)C(=O)N(C)C[C@H](OC)[C@@H](C)CN(C(=O)CN1CCOCC1)[C@@H](C)CO2
-2 | -17 | 0.1 | CNC[C@@H]1OCCCC[C@H](C)Oc2ccc(NC(=O)C3CCCCC3)cc2C(=O)N([C@@H](C)CO)C[C@@H]1C
5 | 7 | -2.5 | C[C@@H]1CN([C@@H](C)CO)C(=O)c2cc(NC(=O)Cn3cnnn3)ccc2O[C@H]1CN(C)Cc1ccc2c(c1)OCO2
4 | -1 | 0.2 | COc1cccc(NC(=O)C[C@H]2CC[C@@H]3[C@H](COc4ccc(NC(=O)C5CCCC5)cc4C(=O)N3C)O2)c1
-48* | -38* | -0.4* | COc1ccc(C#Cc2ccc([C@H]3[C@@H](CO)N4CCCCN(C(=O)Nc5cccc(F)c5)C[C@H]34)cc2)cc1
-22 | -32 | -2.7 | CNC[C@H]1Oc2cc(C#CC3CCCCC3)ccc2S(=O)(=O)N([C@@H](C)CO)C[C@@H]1C
-2 | -1 | 1.9 | CCC(=O)N1[C@@H](CO)[C@@H](c2ccc(-c3ccc(F)cc3)cc2)[C@@H]1CNC(C)=O
4 | 6 | -1.5 | CO[C@@H]1CN(C)C(=O)c2ccc(NC(C)=O)cc2OC[C@H](C)N(C(=O)CN(C)C)C[C@H]1C
3 | 8 | -2.1 | O=C1C[C@H](c2ccccc2)C(=O)N[C@@H](c2ccc(F)cc2)C/C=C\CCN1
2 | 5 | 2.5 | CCCN(C)C[C@@H]1Oc2ncc(C#CC3CC3)cc2C(=O)N([C@H](C)CO)C[C@H]1C
6 | 13 | -2.0 | CC(C)NC(=O)N1CCCCN2[C@@H](CO)[C@@H](c3ccc(C#C[C@@H](C)O)cc3)[C@@H]2C1
-4 | -11 | -0.9 | CC[C@@H]1CC=CC[C@@H](C)Oc2ccccc2C(=O)N(C)[C@H](Cc2ccccc2)C(=O)N1 (mixture of isomers)
1 | 7 | -0.1 | CC(=O)N(C)C[C@H]1Oc2ccc(NS(C)(=O)=O)cc2CC(=O)N(C)C[C@@H]1C
4 | 8 | -6.2 | Cc1noc(C)c1NC(=O)N(C)C[C@@H]1OCCCC[C@@H](C)Oc2ccc(N(C)C)cc2C(=O)N([C@H](C)CO)C[C@@H]1C
2 | 8 | 0.1 | Cc1noc(C)c1NC(=O)N(C)C[C@H]1OCc2cn(nn2)CCCC(=O)N([C@H](C)CO)C[C@H]1C

Reprinted from the listing for reference:
Ecoli rRNA inh | Ecoli rRNA inh OD600 | Ecoli rRNA inh RFP | Compound
2 | 6 | -0.2 | CCC(=O)Nc1ccc2c(c1)C(=O)N(C)C[C@H](OC)[C@@H](C)CN(C(=O)CN1CCOCC1)[C@@H](C)CO2
-2 | -17 | 0.1 | CNC[C@@H]1OCCCC[C@H](C)Oc2ccc(NC(=O)C3CCCCC3)cc2C(=O)N([C@@H](C)CO)C[C@@H]1C
5 | 7 | -2.5 | C[C@@H]1CN([C@@H](C)CO)C(=O)c2cc(NC(=O)Cn3cnnn3)ccc2O[C@H]1CN(C)Cc1ccc2c(c1)OCO2
4 | -1 | 0.2 | COc1cccc(NC(=O)C[C@H]2CC[C@@H]3[C@H](COc4ccc(NC(=O)C5CCCC5)cc4C(=O)N3C)O2)c1
-48* | -38* | -0.4* | COc1ccc(C#Cc2ccc([C@H]3[C@@H](CO)N4CCCCN(C(=O)Nc5cccc(F)c5)C[C@H]34)cc2)cc1
-22 | -32 | -2.7 | CNC[C@H]1Oc2cc(C#CC3CCCCC3)ccc2S(=O)(=O)N([C@@H](C)CO)C[C@@H]1C
-2 | -1 | 1.9 | CCC(=O)N1[C@@H](CO)[C@@H](c2ccc(-c3ccc(F)cc3)cc2)[C@@H]1CNC(C)=O
4 | 6 | -1.5 | CO[C@@H]1CN(C)C(=O)c2ccc(NC(C)=O)cc2OC[C@H](C)N(C(=O)CN(C)C)C[C@H]1C
3 | 8 | -2.1 | O=C1C[C@H](c2ccccc2)C(=O)N[C@@H](c2ccc(F)cc2)C/C=C\CCN1
2 | 5 | 2.5 | CCCN(C)C[C@@H]1Oc2ncc(C#CC3CC3)cc2C(=O)N([C@H](C)CO)C[C@H]1C
6 | 13 | -2.0 | CC(C)NC(=O)N1CCCCN2[C@@H](CO)[C@@H](c3ccc(C#C[C@@H](C)O)cc3)[C@@H]2C1
-4 | -11 | -0.9 | CC[C@@H]1CC=CC[C@@H](C)Oc2ccccc2C(=O)N(C)[C@H](Cc2ccccc2)C(=O)N1 (mixture of isomers)
1 | 7 | -0.1 | CC(=O)N(C)C[C@H]1Oc2ccc(NS(C)(=O)=O)cc2CC(=O)N(C)C[C@@H]1C
4 | 8 | -6.2 | Cc1noc(C)c1NC(=O)N(C)C[C@@H]1OCCCC[C@@H](C)Oc2ccc(N(C)C)cc2C(=O)N([C@H](C)CO)C[C@@H]1C
2 | 8 | 0.1 | Cc1noc(C)c1NC(=O)N(C)C[C@H]1OCc2cn(nn2)CCCC(=O)N([C@H](C)CO)C[C@H]1C

Further structures
Ecoli rRNA inh | Ecoli rRNA inh OD600 | Ecoli rRNA inh RFP | Compound
-5 | -27 | 11 | COc1ccc2c3c(n(C)c2c1)[C@@H](CO)NCC31CCN(S(=O)(=O)c2ccccc2)CC1
-5 | -6 | 0.5 | C[C@H]1CN([C@@H](C)CO)C(=O)CCCn2nncc2CO[C@H]1CN(C)Cc1ccc(C(F)(F)F)cc1
-10 | -39 | 22 | O=C(Nc1ccc(F)cc1)N1CC(=O)N2[C@H](CO)[C@@H](c3ccc(C#Cc4ccccc4)cc3)[C@H]2C1
2 | -1 | -1.7 | O=C(Nc1ccc2c(c1)[C@@H]1C[C@@H](CC(=O)N3CCCCC3)O[C@H](CO)[C@@H]1O2)NC1CCCCC1
2 | 3 | -0.7 | CCCN(C)C[C@H]1OCCCC[C@@H](C)Oc2ccc(NC(=O)CCCN(C)C)cc2C(=O)N([C@@H](C)CO)C[C@@H]1C
-12 | -57 | 31 | COCC(=O)N1CC2(CN(Cc3ccccc3Cl)C2)c2c([nH]c3cc(OC)ccc23)[C@H]1CO
2 | 3 | -1.8 | CC(=O)N(C)C[C@@H]1Oc2c(N)cccc2C(=O)N(C)C[C@@H]1C
3 | 7 | -0.2 | CC(=O)Nc1ccc2c(c1)CC(=O)N(C)C[C@H](C)[C@H](CN(C)C)O2
-1 | 9 | 1.3 | CCCN1C[C@H](C)[C@@H](OC)CN(C)C(=O)c2cc(NC(=O)Nc3cccc(F)c3)ccc2OC[C@H]1C
-3 | 11 | 0.1 | O=C1C[C@@H](c2ccccc2)C(=O)N[C@H](c2ccccc2)C/C=C\C[C@@H](c2ccccc2)N1
5 | 16 | 1.2 | CC(=O)N1[C@H](CNC(=O)CN2CCOCC2)[C@H](c2ccccc2)[C@@H]1CO
-1 | -11 | -2.5 | C[C@@H]1CN([C@H](C)CO)S(=O)(=O)c2ccc(C3=CCCCC3)cc2O[C@H]1CN(C)C
0 | -4 | -1.2 | COc1ccc(NC(=O)N(C)C[C@@H]2Oc3ccc(NS(=O)(=O)c4ccc(C)cc4)cc3C(=O)N([C@H](C)CO)C[C@H]2C)cc1
1 | -8 | 1.1 | FC(F)(F)CN1C[C@@H]2C(c3ccc(Br)cc3)[C@H](C1)N2CC(F)(F)F (stereo partly specified)
0 | 3 | -2.1 | CCCNC(=O)Nc1ccc2c(c1)C(=O)N(C)C[C@@H](OC)[C@@H](C)CN(Cc1ccccn1)[C@@H](C)CO2
-3 | -2 | -0.8 | CC(=O)N1[C@@H](CO)[C@@H](c2ccc(-c3ccccc3)cc2)[C@@H]1CNC(=O)C1CC1
5 | 7 | 0.5 | COc1ccc2c3c([nH]c2c1)[C@H](CO)N(Cc1ccccn1)CC31CN(C(=O)CC2CC2)C1
2 | 2 | 0.8 | C[C@H]1CCCCO[C@@H](CN(C)CC2CCCCC2)[C@@H](C)CN([C@@H](C)CO)C(=O)c2cc(NC(=O)CCCN(C)C)ccc2O1
-1 | -16 | 6.8 | CCC(=O)N1C[C@H](C)[C@H](OC)CN(C)C(=O)c2ccc(NC(=O)Nc3ccc(Cl)cc3)cc2OC[C@@H]1C
4 | 14 | 1.5 | COc1ccc2c3c([nH]c2c1)[C@@H](CO)N(C)CC31CN(S(C)(=O)=O)C1
1 | -2 | -2.3 | C[C@@H]1CCCCO[C@@H](CN(C)Cc2ccncc2)[C@H](C)CN([C@@H](C)CO)C(=O)c2cc(NS(C)(=O)=O)ccc2O1
1 | -17 | 3.7 | COc1cccc(S(=O)(=O)N2CCCCN3[C@H](CO)[C@H](c4ccc(C#CC5CC5)cc4)[C@@H]3C2)c1
7 | 16 | -2.2 | CC[C@H]1C/C=C\C[C@@H](c2ccc(OC)cc2OC)NC(=O)[C@@H](C)CC(=O)N1
-1 | -1 | -1.8 | CO[C@H]1CN(C)C(=O)c2cc(NS(C)(=O)=O)ccc2OC[C@H](C)N(C(=O)NC(C)C)C[C@H]1C
4 | 11 | -0.8 | CNC[C@@H]1OCCCC[C@@H](C)Oc2ccc(NS(=O)(=O)c3ccc(OC)cc3)cc2C(=O)N([C@@H](C)CO)C[C@H]1C
1 | 2 | -2.0 | COCC(=O)Nc1ccc2c(c1)C(=O)N(C)C[C@H](OC)[C@@H](C)CN[C@H](C)CO2
-4 | -19 | 2.9 | CC(C)C#Cc1ccc2c(c1)O[C@H](CN(C)C(=O)C1CCCCC1)[C@H](C)CN([C@H](C)CO)S2(=O)=O
0 | 2 | -0.2 | CO[C@@H]1CN(C)C(=O)c2ccc(NC(=O)c3cccc(F)c3)cc2OC[C@H](C)N(C)C[C@@H]1C
-3 | -18 | 7.0 | CC(C)CC#Cc1ccc2c(c1)O[C@H](CN(C)C(=O)C1CC1)[C@H](C)CN([C@@H](C)CO)S2(=O)=O
-2 | -8 | 3.1 | CO[C@H]1CN(C)C(=O)c2ccc(NC(=O)C3CC3)cc2OC[C@H](C)N(Cc2cccc(F)c2)C[C@H]1C
-7 | -3 | -1.9 | C[C@H](CO)N1C[C@H](C)[C@@H](CN(C)C(=O)c2cccc(F)c2)Oc2ncc(-c3ccccc3)cc2C1=O

Not all compounds are listed; the hit share may differ from the screen's.
